Bioassay records: PubChem BioAssay, Johns Hopkins Ion Channel Center
KCNQ2 enhance: potentiators of rat KCNQ2 potassium channel. CHO-K1 KCNQ2, FluxOR thallium flux fluorescence; hits give high values. B-score at 10 µM. 0.54% of 310,000 active;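 active = fluorescence ratio B-score at least 3 SD of library B-scores, with initial fluorescence B-score within 3 SD, cut at about 5.3 in these data; same plate scores as AID 2156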;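 note: B-score of peak minus minimum over baseline fluorescence ratio after K+ and Tl+ stimulus; positive B-score means potentiation of KCNQ2 with more thallium influx and brighter signal; only the inactives scoring about 0 or higher are listed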
Target sequence (O88943 whole entry, looked up): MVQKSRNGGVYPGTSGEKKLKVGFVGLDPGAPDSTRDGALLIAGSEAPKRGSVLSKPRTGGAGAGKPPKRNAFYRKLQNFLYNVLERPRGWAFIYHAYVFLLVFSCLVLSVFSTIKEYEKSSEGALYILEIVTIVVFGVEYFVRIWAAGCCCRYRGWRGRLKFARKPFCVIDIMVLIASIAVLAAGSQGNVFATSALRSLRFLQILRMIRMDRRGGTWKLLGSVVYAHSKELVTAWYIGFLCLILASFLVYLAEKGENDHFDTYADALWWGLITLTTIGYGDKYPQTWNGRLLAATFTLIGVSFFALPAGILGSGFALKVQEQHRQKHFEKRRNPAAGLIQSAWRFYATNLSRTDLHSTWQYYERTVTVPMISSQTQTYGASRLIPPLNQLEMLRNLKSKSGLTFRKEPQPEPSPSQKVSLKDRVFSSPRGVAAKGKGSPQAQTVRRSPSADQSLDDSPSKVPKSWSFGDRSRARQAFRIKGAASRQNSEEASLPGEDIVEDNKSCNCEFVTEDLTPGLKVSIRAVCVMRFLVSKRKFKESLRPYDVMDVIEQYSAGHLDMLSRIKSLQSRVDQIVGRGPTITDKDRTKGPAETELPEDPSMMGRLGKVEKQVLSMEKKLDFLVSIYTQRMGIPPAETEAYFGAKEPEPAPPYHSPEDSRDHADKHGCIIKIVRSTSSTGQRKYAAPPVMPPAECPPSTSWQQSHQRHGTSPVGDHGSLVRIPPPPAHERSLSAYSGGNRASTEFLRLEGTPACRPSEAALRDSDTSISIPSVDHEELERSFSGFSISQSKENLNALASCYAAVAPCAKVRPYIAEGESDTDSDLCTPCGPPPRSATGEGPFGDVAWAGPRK
KCNQ2 enhance baseline: second read-out of KCNQ2 enhance, no call of its own (marks repeat the call); B-score; compound at 10 µM; measured here: initial fluorescence intensity artifact check;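 brightness before thallium and not channel activity; 0 = typical well and far values either way flag optical interference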
* = called active by the depositor. Only part of the results is shown; rates above refer to the full screens.

Values in the order: KCNQ2 enhance	KCNQ2 enhance baseline
CCN(CC)CCNC(=O)CNC(=O)c1nn(-c2ccc(OC)c(OC)c2)c(=O)c2ccccc12
→ 0.42	-0.47
CNC(=O)/C(C#N)=C\c1ccc(CNS(=O)(=O)c2ccccc2)o1
→ 0.56	1.4
COc1ccc(N2CCN(CC(=O)N3c4ccccc4CC3C)CC2)cc1 (stereo not given)
→ 0.64	0.66
Cc1ccccc1NC(=O)COC(=O)CN1C(=O)NC(C)(C)C1=O
→ 1.1	-0.96
COc1ccc(CNC(=O)COC(=O)CCC(=O)c2cccs2)cc1
→ 1.9	-0.39
Cc1noc(C)c1CSCC(=O)Nc1nc2ccc(S(C)(=O)=O)cc2s1
→ 0.32	1.3
COc1ccc(-c2ccc3oc(-c4ccsc4)cc3c2)cc1
→ 0.45	0.72
Nc1cc(-c2ccc(Br)cc2)nc2cc(-c3ccccc3)nn12
→ 0.23	-0.03
O=C(O)c1ccccc1C(=O)NC1CCCc2ccccc21 (stereo not given)
→ 0.3	0.21
COc1cc(NC(=O)c2ccco2)ccc1NC(=O)C(C)C
→ 0.84	0.1
COC(=O)C(NC(=O)c1cccnc1Cl)C(C)C (stereo not given)
→ 0.02	-0.25
Cc1ccc(-c2nn(CCC(=O)NC(C)C)c(=O)c3ccccc23)cc1
→ 1.2	-0.49
O=C(N/N=C/c1ccco1)c1cc(C2CC2)[nH]n1
→ 1	-0.08
CCc1noc(C)c1C(=O)NNC(=O)COc1ccc(C)c(C)c1
→ 1.1	-3.8
O=C(NCc1csc(-c2cccs2)n1)Nc1cccc(Cl)c1
→ 0.5	0.81
CCOC(=O)c1sc(NC(=S)NC(=O)c2ccccc2Cl)c(C(=O)OCC)c1C
→ 0.73	-1.1
CSc1ccccc1OCc1cc(C(=O)N2CCCC2c2nonc2C)no1 (stereo not given)
→ 0.85	0.8
Cc1cc(NC(=O)CSc2nnc(CNc3ccc(F)cc3)n2C2CCCCC2)no1
→ 0.17	-2.2
CC(=O)N1CCN(C(=O)COC(=O)CNC(=O)c2ccccc2C)CC1
→ 2.3	-0.5
Cc1noc(NS(=O)(=O)c2ccc(NC(=O)c3ccoc3C)cc2)c1C
→ 0.32	0.98
O=C(NC(=O)c1cccc(F)c1)OC[C@@H]1CCCN2CCCC[C@H]12
→ 0.02	-0.01
CCOc1cccc(C(=O)Nc2cccc(C(=O)NCC(C)C)c2)c1
→ 0.1	0
Cc1ccc(OCC(=O)N2CCN(C(=O)c3cccc(F)c3)CC2)cc1
→ 0.24	0.37
COc1cc2cc(Oc3ccc4ccc(=O)oc4c3)c(=O)oc2cc1OC1OC(COC(=O)CC(C)(O)CC(=O)O)C(O)C(O)C1O (stereo not given)
→ 0.66	0.44
COc1ccc(N2C(=O)CSC2c2cccc(F)c2)c(OC)c1 (stereo not given)
→ 0.36	-1.5
O=C(COC(=O)c1cn(-c2ccccc2)nc1-c1cccs1)NC1CC1
→ 0.07	0.32
O=C(c1c(F)cccc1F)N1CCC(O)(c2ccc(F)cc2)CC1
→ 0.14	1.5
CCC(=O)Nc1c(C#N)c2nc3ccccc3nc2n1-c1ccccc1C
→ 2.9	-3.4
O=c1c2ccccc2cnn1Cc1n[nH]c(=S)n1-c1ccc(F)cc1
→ 0.19	-2.5
C=CCc1cc(Cl)ccc1OCCOCCNC(C)(C)C
→ 0.06	0.08
COc1ccc(NC(=O)CN(C)C(=O)c2ccc3c(c2)OCCO3)cc1
→ 0.03	0.97
CCCOc1ccc(C(=O)CCC(=O)OCC(=O)N(C)c2c(N)n(Cc3ccccc3)c(=O)[nH]c2=O)cc1
→ 0.9	-1.2
CCOCCn1c(=O)c2c(nc3n2CCN3c2ccc(C)cc2)n(C)c1=O
→ 0.4	-0.25
COC(=O)c1cc(NCc2cccs2)ccc1N1CCOCC1
→ 0.43	1.4
CC(=O)NCCC1CCCCN1C(=O)c1cc(COc2cc(C)ccc2C)on1 (stereo not given)
→ 0.79	1.2
COc1ccc([N+](=O)[O-])cc1NC(=O)CSCc1ccc(Br)cc1
→ 5.5*	-2.1*
Cc1noc(C)c1CN(C(=S)NC1CC1)c1ccccc1
→ 1.4	-0.28
COc1cccc(C(=O)Nc2ccc(N3CCN(C(=O)c4ccco4)CC3)cc2)c1
→ 1.7	-0.63
COc1ccc(N(CC(=O)NCCc2ccc(OC)c(OC)c2)S(=O)(=O)c2ccc(OC)c(OC)c2)cc1
→ 0.67	-1
CNS(=O)(=O)c1cccc(C(=O)OCC(=O)NCc2ccccc2)c1
→ 0.52	-0.2
Cc1csc(N2CCCC2c2nc3cc(Cl)c(N4CCCCC4)cc3n2CCCO)n1 (stereo not given)
→ 2.4	0.17
C#CC(C)(C)NC(=O)CSc1nc2c(c(=O)n(C)c(=O)n2C)n1CCCC
→ 0.14	1.3
O=C(O)CNS(=O)(=O)c1cccc(Cl)c1
→ 0.72	-2.1
COc1cccc(CN2CCNC(=O)C2CC(=O)NCCOc2cccnc2)c1OC (stereo not given)
→ 0.32	0.77
CC1=C(C(=O)OC2CCCC(C)C2)C(c2ccccc2)NC(=O)N1 (stereo not given)
→ 1.6	0.39
COc1ccc2c(c1)OC13CCCCC1C2C(C(=O)c1ccccc1)C(=O)N3 (stereo not given)
→ 0.24	-1.7
C=CCN(N=Nc1cccc([N+](=O)[O-])c1)c1cccc([N+](=O)[O-])c1
→ 0.82	-1.4
O=C(NCCCn1ccnc1)c1nn2c(C(F)(F)F)cc(-c3ccc(Br)cc3)nc2c1Cl
→ 0.2	4.1
CC1CCc2nn(CC(=O)NCCN3CCOCC3)cc2C1 (stereo not given)
→ 1.1	-0.12
Cc1c(NC(=O)COc2cccc(Cl)c2Cl)c(=O)n(-c2ccccc2)n1C
→ 1.1	-1.9
Cc1ccc(/C=N/NC(=O)CN2CCN(S(=O)(=O)c3ccc(Br)cc3)CC2)s1
→ 0.91	0.27
Cc1ccc(C2NC(=O)c3c(sc(C)c3C)N2)c(O)c1 (stereo not given)
→ 2.2	0.36
Cc1cccc(NC(=O)c2cccnc2)c1
→ 0.07	0.33
COc1ccc2[nH]cc(CCN=C3SCC(=O)N3C)c2c1
→ 2.5	-2.2
CCOc1ccc(C(=O)Nc2cccc(C(C)=O)c2)cc1[N+](=O)[O-]
→ 1.5	0.04
S=c1[nH]nc(-c2cccc(Cl)c2)n1/N=C/c1ccco1
→ 0.68	-2.8
O=C(Nc1ccc2c(c1)OCO2)C(=O)c1c[nH]c2ccccc12
→ 0.58	2.8
CCOC(=O)c1nnn(-c2nc(N(C)C)nc(N(C)C)n2)c1C
→ 0.92	0.37
N#Cc1ccccc1NC(=O)C1CC(=O)N(c2ccc3c4c(cccc24)CC3)C1 (stereo not given)
→ 1.2	-2.3
CC1=CC(=C2C(=O)c3ccccc3C2=O)C=C(C)N1C
→ 0.31	-0.97

Already shown: an excerpt of the list.
Values in the order: KCNQ2 enhance	KCNQ2 enhance baseline
CCN(CC)CCNC(=O)CNC(=O)c1nn(-c2ccc(OC)c(OC)c2)c(=O)c2ccccc12
→ 0.42	-0.47
CNC(=O)/C(C#N)=C\c1ccc(CNS(=O)(=O)c2ccccc2)o1
→ 0.56	1.4
COc1ccc(N2CCN(CC(=O)N3c4ccccc4CC3C)CC2)cc1 (stereo not given)
→ 0.64	0.66

Continued.
| Structure | KCNQ2 enhance | KCNQ2 enhance baseline |
| --- | --- | --- |
| O=C(O)Cc1ccc(NS(=O)(=O)c2ccccc2Cl)cc1 | 0.39 | 0.16 |
| COc1ccc(CCN2C(=O)C3C4C=CC(C5CC45)C3C2=O)cc1OC (stereo not given) | 0.48 | -0.43 |
| Cc1ccc(NC(=O)c2ccc(CNS(=O)(=O)c3cccc(C(F)(F)F)c3)cc2)cc1 | 0.96 | -0.11 |
| CCOc1ccc(/C=C(/NC(=O)c2ccccc2Cl)C(=O)O)cc1 | 0.1 | 1.5 |
| C=CCn1c(SCC(=O)NCc2cccs2)nnc1C1CCCCC1 | 0.03 | 0.67 |
| CCOc1ccc(/C=C(\C(=O)O)c2ccc(S(=O)(=O)N3CCOCC3)s2)cc1OC | 0.01 | -0.39 |
| COc1ccc(CC(=O)Nc2cc(=O)n(C)c(=O)n2C)cc1 | 0.5 | 0.01 |
| COC(=O)CSc1ccc2c(N)c(C(=O)OC)sc2c1 | 0.06 | -3.6 |
| CCCCOc1ccc(S(=O)(=O)N2CCN(C)CC2)cc1 | 1.5 | 0.26 |
| CC(=O)c1cccc(NC(=O)c2ccc(S(=O)(=O)N3CCCC3)cc2)c1 | 1.2 | -2.1 |
| CCOC(=O)N1CCN(C(=O)C2CCC(CNS(=O)(=O)c3ccccc3)CC2)CC1 (stereo not given) | 0.08 | -0.08 |
| O=C(Nc1ccccc1)c1ccc(NCCc2ccccc2)c([N+](=O)[O-])c1 | 1.3 | -1.4 |
| COCCn1nnnc1SCC(=O)Nc1ccc2c(c1)OCO2 | 0.3 | 0.07 |
| CC(C)c1ccc(Nc2nnc(SC3CCOC3=O)s2)cc1 (stereo not given) | 0.82 | -0.14 |
| Cn1c(=O)[nH]c(=O)c2c1nc(NCCN)n2CCOc1ccccc1 | 0.01 | 1.2 |
| CCC(=O)Nc1ccc(NC(=O)CSc2nc3cc4c(cc3cc2C)CCC4)cc1 | 1.4 | -1.2 |
| Cc1ccccc1N1CCN(C2CCCN(C(=O)c3ocnc3C)C2)CC1 (stereo not given) | 0.67 | 2.5 |
| O=C(COC(=O)CCc1nc2ccccc2c(=O)[nH]1)Nc1ccc(Cl)cn1 | 1.6 | 1.1 |
| Cc1ccc(OCC(=O)OCC(=O)c2cccc([N+](=O)[O-])c2)cc1C | 1.2 | -0.95 |
| COc1ccc(C(=O)NCCSC2CCCCC2)cc1 | 0.01 | -0.7 |
| COc1cccc(N2CCN(c3ccc4nnc(CCC(=O)Nc5cc(C)ccn5)n4n3)CC2)c1 | 0.65 | -1.4 |
| O=C(CNC(=S)N(Cc1ccc(F)cc1)C1CCCCC1)NCCN1CCOCC1 | 0.1 | 0.06 |
| CCN1CCN(CCOc2cccc(Oc3ccccc3)c2)CC1 | 1.2 | 0.74 |
| Cc1cccc(-n2nnc3cnn(C)c3c2=O)c1 | 0.02 | 1.4 |
| Cc1cc(=O)[nH]c2c(N=Nc3ccc(O)cc3)c(N)nn12 | 1.9 | 0.85 |
| NC(=O)CN1CCCC1c1ccc2c(c1)OCCO2 (stereo not given) | 0.04 | -0.09 |
| FC(F)(F)c1ccccc1-c1nc(-c2ccncc2)no1 | 0.81 | 0.17 |
| O=C(c1cccc(F)c1)N1CCN(Cc2cccc(Br)c2)CC1 | 1.7 | 0.01 |
| COc1c(O)cc2oc(-c3ccc(O)cc3)cc(=O)c2c1O | 3.8 | 0.38 |
| O=C(c1ccc(Cl)s1)N1CCc2ccccc21 | 0.16 | 0 |

Reformatted with each value named: entries from further up
molecule: COC(=O)CSc1ccc2c(N)c(C(=O)OC)sc2c1
  KCNQ2 enhance: 0.06
  KCNQ2 enhance baseline: -3.6

molecule: CC(=O)c1cccc(NC(=O)c2ccc(S(=O)(=O)N3CCCC3)cc2)c1
  KCNQ2 enhance: 1.2
  KCNQ2 enhance baseline: -2.1

molecule: O=C(c1cccc(F)c1)N1CCN(Cc2cccc(Br)c2)CC1
  KCNQ2 enhance: 1.7
  KCNQ2 enhance baseline: 0.01

Ordered by count of non-hydrogen atoms (falling): 3 of the compounds above.
| Structure | KCNQ2 enhance | KCNQ2 enhance baseline |
| --- | --- | --- |
| O=C(Nc1ccccc1)c1ccc(NCCc2ccccc2)c([N+](=O)[O-])c1 | 1.3 | -1.4 |
| CC(=O)c1cccc(NC(=O)c2ccc(S(=O)(=O)N3CCCC3)cc2)c1 | 1.2 | -2.1 |
| Cn1c(=O)[nH]c(=O)c2c1nc(NCCN)n2CCOc1ccccc1 | 0.01 | 1.2 |

Carrying on:
| Structure | KCNQ2 enhance | KCNQ2 enhance baseline |
| --- | --- | --- |
| CC(=O)N/C(=C\c1cccc([N+](=O)[O-])c1)C(=O)NC(C)C | 1.6 | -1.7 |
| COc1ccc2c(c1)C1(C)CC(C)(C)N2C(=O)N1c1ccccc1 (stereo not given) | 2.1 | -0.01 |
| Cc1ccc(NC2CC(C)NC(=S)N2)cc1 (stereo not given) | 0.5 | -0.01 |
| CCn1c(SCC(=O)NC2CCCCC2)nc2ccccc2c1=O | 0.23 | 0.65 |
| COc1ccc(C2=NS(=O)(=O)N(C)C(C(=O)Nc3ccc4c(c3)OCO4)=C2)cc1OC | 0.2 | -4.4 |
| Cc1nnc(SCC(=O)NC2CCC(C)CC2)s1 (stereo not given) | 2 | 2.4 |
| COC(=O)CN1C(=O)C2(C(C#N)=C(N)Oc3ccccc32)C2=C1CC(C)(C)CC2=O (stereo not given) | 0.17 | 0.21 |
| Cc1cc(C(=O)Nc2ccc(Nc3ccccc3)cc2)ccc1[N+](=O)[O-] | 0.35 | -0.32 |
| CCOc1cc(/C=C2/N=C(C)C(C(=O)OC)=C2O)ccc1O | 0.86 | -0.72 |
| CCC(=O)c1ccc(OCC(=O)OCC(=O)Nc2c(C)n(C)n(-c3ccccc3)c2=O)cc1 | 0.02 | -0.21 |
| COc1ccccc1-n1nnnc1SCC(=O)NC1CC1 | 0.03 | 0.49 |
| Cn1c(=O)c2c(SCC(=O)N3CCOCC3)nc(-c3ccccc3Cl)nc2n(C)c1=O | 1.1 | 0.21 |
| CC(C)C(=O)Nc1ccc(Sc2ccc(F)cc2)cc1 | 1.6 | 0.09 |
| COc1ccc(C(CC(=O)O)NC(=O)c2sc3ccccc3c2Cl)cc1 (stereo not given) | 2.3 | 0.54 |
| COc1ccc(-c2noc(-c3ccccc3C(=O)NCc3ccco3)n2)cc1OC | 0.35 | -2 |
| Cn1c(=O)c2c(nc(N3CCN(Cc4ccccc4)CC3)n2CC(=O)c2ccccc2)n(C)c1=O | 0.47 | 1.4 |
| O=C(C1CCC1)N1CCN(c2ccccc2)CC1 | 0.07 | 0.63 |
| CCOc1ccc(-n2c(O)c(/C=N/c3ccnn3Cc3ccncc3)c3ccccc3c2=O)cc1 | 1.2 | 0.41 |
| COc1ccc(S(=O)(=O)N2CCC(C(=O)N(CC(C)C)C3CCS(=O)(=O)C3)CC2)cc1OC (stereo not given) | 0.12 | 1.8 |
